Bioassay records (PubChem)
HCMV NEC inh: inhibitors of HCMV UL50-UL53 interaction, biochemical, HTRF; HCMV UL50-UL53 nuclear egress complex (human cytomegalovirus); 190,000 compounds, 0.15% hits; inhibition, % (no concentration beside the values); normalized percent inhibition;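 active = both replicates at 50% or more, plus weaker picks with an unusually low signal ratio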;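 also: stock transfer was 100 nL into about 20 µL; 0% = negative control wells and 100% = wells with untagged competitor protein; inactives centre near -12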
Sa growth inh: S. aureus growth inhibition at 42 and 30 °C, primary screen, LtaS inhibitor project, RN4220, two temperatures | AID 720641, 2013 | 170,000 compounds, 0.53% hits | relative growth, % (concentration not given with the values) | OD600, 20 h, 42 °C; active compounds read low;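 active = growth at 42 °C up to 50% and 20 or more points under that at 30 °C, or under 10% at both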;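 also: 300 nL library stock went into each well; scaled to the means of positive and negative controls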
GIV-Gai inh: inhibitors of GIV peptide binding to Galpha-i3, primary screen, biochemical, fluorescence polarization, FITC-GIV GBA peptide, rat Galphai3. 90 min; active compounds read low; scaled: aluminum fluoride 0%, vehicle 100%. 210,000 compounds, 0.42% hits. percent of control (FP), % (no concentration beside the values);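 active = replicate mean at 85% of control or lower, very high polarization wells dropped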;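 also: wells of about 15 µL received 100 nL stock; the first replicate is given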
Target sequence (P08753 whole entry, looked up): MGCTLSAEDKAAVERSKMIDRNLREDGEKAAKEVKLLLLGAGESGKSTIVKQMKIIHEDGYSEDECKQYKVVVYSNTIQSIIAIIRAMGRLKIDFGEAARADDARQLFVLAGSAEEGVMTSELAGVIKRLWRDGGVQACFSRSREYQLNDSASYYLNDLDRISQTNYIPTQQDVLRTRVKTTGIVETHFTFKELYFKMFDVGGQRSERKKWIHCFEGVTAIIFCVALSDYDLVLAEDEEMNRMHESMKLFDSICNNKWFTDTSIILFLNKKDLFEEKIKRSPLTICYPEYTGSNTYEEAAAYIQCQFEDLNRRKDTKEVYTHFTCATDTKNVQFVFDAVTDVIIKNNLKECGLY
Sa growth inh second temp: recorded beside Sa growth inh, whose call it bears; relative growth, %; measured here: growth at 30 °C;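 optical density after 20 h as mean of two plates; 100% = untreated growth and lower means inhibition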
* marks the source's active call; other numbers are inactive results; / = no result given; & = joins results of further samples.

SMILES	HCMV NEC inh	Sa growth inh	Sa growth inh second temp	GIV-Gai inh
C=CCC(O)(c1ccc(C)cc1)C(CN1CCOCC1)c1ccccc1 (stereo not drawn)	-9.9	/	/	101.2
O=C(/C=C/c1ccco1)Nc1cc(C(=O)O)cc(C(=O)O)c1	-54.4	103.7	87.8	98.9
O=C(O)CCc1cccs1	0.0	101.1	97.1	104.5
COc1ccc(C(CNC(=O)COc2ccccc2Cl)c2c[nH]c3ccccc23)cc1 (stereo not drawn)	-9.4	/	/	109.2
CC(=O)c1ccc(NC(=O)CSc2nc(-c3ccccc3F)nc3c2c(=O)n(C)c(=O)n3C)cc1	/	89.1	83.1	98.4
c1ccc(-c2csc(NCc3ccco3)n2)cc1	-11.9	93.3	97.8	99.0
CCc1c(C)nc2nc(Cc3cccc(F)c3)nn2c1NCc1ccccc1	4.1	/	/	99.8
CCOC(=O)Cn1c(=O)n(CCc2ccccc2)c(=O)c2ccccc21	3.0	110.8	87.4	103.7
NNC(=O)CSCc1ccc(Cl)cc1	-7.4	113.9	87.5	/
Cc1cc(=O)[nH]c(-n2cc(C(=O)c3cc(F)ccc3O)cn2)n1	-14.0	74.3	83.2	/
COc1ccccc1NC(=O)c1oc2ccc3c(c2c1C)C(=O)CC(C)(C)O3	-18.1	102.6	100.4	109.7
CC(C)CN1C(=O)c2cccnc2C1=O	-21.8	115.9	99.7	107.4
O=C(NCCc1ccccc1)C1CCN(c2ncnc3c2nc2n3CCCCC2)CC1	/	121.0	88.0	106.7
CCN(CC)C(=S)Oc1c(C)c(C)nc(=S)n1CCCOC	1.7	101.2	99.6	110.0
CCOC(=O)c1c(C)[nH]c(C)c1S(=O)(=O)NCC(=O)Nc1ccc(C)cc1C	/	91.9	97.3	106.1
O=C(CCN1CCN(CCO)CC1)Nc1ccc(Br)cc1	0.7	104.1	93.7	104.8
CN(Cc1ccccc1)c1c2c(nc3nncn13)CCC2	-15.8	99.6	88.4	103.1
CCOC(=O)c1cc(-c2ccc(/C=C(\C#N)C(N)=C(C#N)C#N)o2)ccc1Cl	5.8	93.5	53.8	86.9
COc1ccc(OC)c(NC(=O)c2cn(CC(C)C)c(=O)c3cc(OC)c(OC)cc23)c1	2.2	91.5	91.7	105.3
Cn1nc2c3ccccc3n(Cc3ccccc3)c2nc1=S	-31.5	88.2	67.9	103.7
Nc1nc(-c2ccc(NC(=O)c3ccco3)cc2)cs1	-77.5	72.2	87.9	/
N/C(=N\OCC(=O)Nc1ccccc1)c1nonc1N	2.6	72.3	85.1	93.8
O=C(Nc1ccc(N2CCOCC2)cc1)C1CCN(c2cc(-c3ccc(F)cc3)ncn2)CC1	-3.5	/	/	125.2
O=C(Nc1ccc(F)cc1F)c1ccc2c(Cl)c3c(nc2c1)CCC3	0.3	93.6	85.4	95.1
Cc1ccc(NC(=O)COC(=O)C2(CC(=O)N3CCOCC3)CCCC2)cc1C	-11.2	89.8	95.0	/
CCS(=O)(=O)c1ccc2oc(SCC(=O)NC(C)C3CC4CCC3C4)nc2c1 (stereo not drawn)	8.2	97.3	92.5	/
CCN(CCCNC(=O)c1cc(Nc2ccc(OC)cc2)nc2ccccc12)c1cccc(C)c1	-22.4	109.1	104.1	100.6
COc1cc(OC)cc(C(=O)Nc2ccc3c(c2)N(C2CCCC2)C(=O)c2ccccc2S3)c1	/	117.3	115.7	106.3
O=C(CN1C(=O)CC(c2ccco2)Sc2ccccc21)Nc1cccc(C(F)(F)F)c1 (stereo not drawn)	-7.8	97.3	102.5	108.5
CCOC(=O)c1[nH]c(C)c(CCC(=O)Nc2ccc(C(C)=O)cc2)c1C	/	101.9	82.6	99.5
O=C1C=CC=C2C3CC(CC12)CN(c1nc(Cl)nc(NCc2ccco2)n1)C3 (stereo not drawn)	0.8	96.9	92.2	104.4
COc1cc(Cl)ccc1N=Cc1c(O)c2c(=O)n(C)c(=O)n(C)c2n(C)c1=O	3.7	105.7	99.1	106.6
CCCc1cc(=S)sc(N)n1	-64.7	54.2	37.0	/
CC(C)Sc1nc(=O)n(Cc2ccccc2)c2c1CCC2	-7.9	/	/	105.1
CCCC(=O)C1=C(c2ccc(OC)cc2)N(C(=O)CCC)n2c(CC)nnc2S1	-23.4	/	/	103.0
COc1ccc(Nc2c3c(nc4nc(C)nn24)CCC3)cc1Cl	5.9	/	/	102.9
N#Cc1ccc(COC(=O)C(Cc2ccccc2)n2cnnn2)cc1 (stereo not drawn)	-19.0	91.1	84.5	/
Cc1ccc(/C=N/O)cc1	-6.1	91.2	97.3	/
CC(C(=O)Nc1ccc2c(c1)OCO2)N1CCN(S(=O)(=O)c2ccc(Cl)s2)CC1 (stereo not drawn)	-2.5	94.9	99.8	/
CCC(C)N1CCN(CC2CC=CCC2)CC1 (stereo not drawn)	-3.6	112.0	82.8	/
Cc1nc(-c2nc(C)c(Cl)c(=O)[nH]2)cs1	0.9	103.7	83.1	103.5
Cc1nc(Nc2ccc(NC(=O)C(C)(C)C)cc2)cc(N(C)C)n1	7.9	/	/	106.9
COc1ccc(-n2c(=O)c3ccccc3n(CC(=O)NC3CCCC3)c2=O)c(OC)c1	-30.4	/	/	102.3
COC(=O)C1CCN(S(=O)(=O)c2ccc(Cl)cc2)CC1	-14.2	91.9	92.4	101.2
O=C(C1CCN(S(=O)(=O)Cc2ccccc2)CC1)N1CCN(c2cccc(C(F)(F)F)c2)CC1	-18.5	92.0	85.3	106.0
O=C(Cc1c(F)cccc1Cl)Nc1ccc(N2CCOCC2)cc1N1CCOCC1	-3.7	100.2	96.6	/
Cc1ccc2[nH]c(=O)c(CNc3ccc(N4CCCCC4)cc3C(=O)N3CCOCC3)cc2c1	-20.2	94.5	83.1	109.7
Cc1cncn1CCc1nc2c3ccccc3nc(SCC(=O)Nc3ccc(F)cc3)n2n1	/	99.2	85.6	104.8
Cc1cc2nc(CSc3nnc(NC(=O)C4CCCCC4)s3)cc(=O)n2o1	-7.1	/	/	102.6
Cc1cccc(NC(=O)Nc2noc3c2COc2ccccc2-3)n1	-22.9	71.9	84.0	101.6
C=CCn1c(=NC(C)=O)sc2cc(F)ccc21	-23.8	88.2	81.3	102.2
CN(Cc1ccccc1)S(=O)(=O)c1cc2c3c(c1)CCC(=O)N3CCC2	-3.5	87.8	88.2	101.4
CCCCCNC(=O)c1ccc2c(=O)n(CCc3ccccc3)c(=O)[nH]c2c1	-8.9	90.7	88.7	106.2
COc1cc(N)ccc1OC(C)C	-24.6	94.8	75.4	103.2
O=C(Nc1ccccc1[N+](=O)[O-])C1COc2ccccc2O1 (stereo not drawn)	-25.1	/	/	103.5
O=C(CCCOc1ccccc1)N1CCN(c2ccccn2)CC1	-15.5	84.5	84.5	/
O=S(=O)(Nc1ccccc1N1CCCCC1)c1cccc2nonc12	-49.9	97.9	96.7	105.5
Cc1cc(NC(=O)C2CCC2)n(-c2nc3ccccc3s2)n1	18.0	97.3	100.2	/
O=C(NCC(=O)N1CCCC1)C1CCCCC1	-7.9	79.1	89.7	/
CCN(CC)CCn1c(=N)n(CCO)c2ccccc21	9.3	102.2	96.5	104.0

Reprinted from the part before: four compounds; new compounds follow.
Every second line gives: HCMV NEC inh	Sa growth inh	Sa growth inh second temp	GIV-Gai inh
> O=S(=O)(Nc1ccccc1N1CCCCC1)c1cccc2nonc12
  -49.9	97.9	96.7	105.5
> Cc1cc(NC(=O)C2CCC2)n(-c2nc3ccccc3s2)n1
  18.0	97.3	100.2	/
> O=C(NCC(=O)N1CCCC1)C1CCCCC1
  -7.9	79.1	89.7	/
> CCN(CC)CCn1c(=N)n(CCO)c2ccccc21
  9.3	102.2	96.5	104.0
> COc1cccc(NC(=O)CN(C)c2nn3c(NC(C)(C)C)c(-c4ccc(C)cc4)nc3s2)c1
  -21.0	/	/	99.0
> O=C1C(O)=C(S(=O)(=O)c2ccccc2)C(c2ccc(F)cc2)N1Cc1ccc2c(c1)OCO2 (stereo not drawn)
  -12.2	/	/	97.9
> N#CCSc1nc2ccccc2c(=O)n1-c1ccccc1
  10.7	90.9	65.2	104.5
> CCc1ccccc1Nc1nn2c(=O)c3ccc(C(=O)NC(C)c4ccccc4)cc3nc2s1 (stereo not drawn)
  /	109.3	80.5	102.5
> Cc1cc(N2CCCC2=O)cc(C)c1CN1C(=O)c2ccccc2C1=O
  -8.9	104.8	96.5	107.1
> CN1C(=O)NC(=O)/C(=C\c2ccc(O)cc2)C1=O
  /	100.4	87.8	99.9
> C=CCn1c(C)cc(C(=O)COC(=O)c2ccccc2O)c1C
  -6.3	99.8	98.4	/
> COc1ccc(-c2noc(Cn3c(=O)c4ccccc4n(CC(=O)Nc4cccc(OC)c4)c3=O)n2)cc1
  /	99.7	85.9	102.2
> CCC(C)C(NC(=O)c1cc(C)oc1C)C(=O)O (stereo not drawn)
  11.7	81.4	107.1	96.6
> Cc1cc(NC(=O)CSc2nccc(=O)[nH]2)no1
  /	93.4	78.1	101.0
> Cc1nc2ccc(S(=O)(=O)N(C)CC(=O)Nc3ccc(C(C)C)cc3)cc2s1
  2.6	95.0	93.1	111.6
> COc1ccc(C(=O)COC(=O)c2cccc(N3C(=O)C4CC=CC(C)C4C3=O)c2)cc1 (stereo not drawn)
  -22.8	/	/	96.9
> CC1CCCC(C)N1C(=O)c1ccccc1NS(=O)(=O)c1ccc(F)cc1 (stereo not drawn)
  -26.9	114.5	79.5	/
> Cc1cc(C)n2nc(CNc3ccccc3)nc2n1
  -22.5	/	/	102.0
> COCCNC(=S)N1CCC(c2nc(-c3ccc(N(C)C)cc3)no2)CC1
  -5.2	92.5	62.9	105.3
> CCc1ccccc1-n1nnc(C(=O)NCc2cccs2)c1N
  /	101.5	93.3	108.9
> CN(C)CCCNC(=O)C(=O)NCc1n[nH]c(=O)c2ccccc12
  -0.3	/	/	112.2
> CCOC(=O)/C(C#N)=C/NC1CCCCNC1=O (stereo not drawn)
  -10.4	99.4	99.4	113.2
> COC(=O)c1ccc(S(=O)(=O)NCc2ccc(S(N)(=O)=O)cc2)n1C
  -10.1	98.0	94.2	105.8
> O=C(Nc1ccccc1)Nc1c[nH]c(=O)[nH]c1=O
  -28.2	97.9	84.4	99.6
> CCOc1ccc(CCCC(=O)O)cc1C
  2.4	93.5	99.1	95.0
> Cc1ccc(-n2ncc3c2ncn2nc(CSc4nc5ccccc5s4)nc32)cc1
  -12.1	/	/	97.9
> COc1ccc(-c2cc(C(F)(F)F)nc(NCc3cccnc3)n2)cc1OC
  -17.5	87.4	79.8	106.6
> CC(NC(=O)c1ccc2c(=O)n3c(nc2c1)CCCCC3)c1ccccc1 (stereo not drawn)
  5.5	106.4	80.2	106.5
> CCCNC(=O)Cn1c(-c2cccs2)cc2ccccc21
  -6.6	112.6	95.2	111.4
> Cc1ccccc1-c1nc(SCC(=O)NCC2CCCO2)c2c(=O)n(C)c(=O)n(C)c2n1 (stereo not drawn)
  /	68.3	93.9	97.0&103.0
> Cc1ccc(CN2C(=O)CCC2(C)C(=O)NCCC(C)C)cc1 (stereo not drawn)
  -2.4	108.0	94.3	109.8
> CCOC(=O)c1c(NC(C)=O)c2c3c(sc2n1Cc1nc(-c2ccccc2OC)oc1C)CCCC3
  -1.1	97.3	90.3	97.6
> C=CCN(c1ccccc1)C(C(=O)Nc1ccc2c(c1)OCCO2)c1ccccc1 (stereo not drawn)
  /	98.6	82.7	91.0
> O=C(COc1ccc(Br)cc1)N1CCC(c2nc3ccccc3s2)CC1
  -10.5	/	/	99.3
> Cc1ccc(C)c(COC(=O)c2nnn(-c3ccc(Br)cc3)c2C)c1
  11.0	/	/	100.9
> N#CC1=C(N)OC2=C(CCc3ccccc32)C1c1ccccc1Cl (stereo not drawn)
  -11.3	109.4	91.8	/
> NC(=S)c1cccc(Oc2ccccc2)c1
  3.3	114.6	94.4	/
> O=C(COc1ccc(F)cc1)N/N=C1\CCS(=O)(=O)c2ccc(F)cc21
  -12.6	92.5	94.3	/
> CC(C)Oc1ccc2c(=O)c(-c3ccccc3)coc2c1
  6.5&-92.5	93.2	82.8	/
> O=C(CSc1nc(C(F)(F)F)cc(=O)[nH]1)N1CCN(c2ccccc2)CC1
  -16.3	86.1	77.0	110.2
> O=c1cc(-c2ccccc2)c2c(O)cc(O)cc2o1
  -39.8&-37.8	/	/	98.5
> Cc1cc(C)c2oc(-c3cc(NC(=O)Cc4ccccc4)ccc3Cl)nc2c1
  -20.1	106.0	84.0	108.5

Looked up one by one from the entries so far:
Every second line gives: HCMV NEC inh	Sa growth inh	Sa growth inh second temp	GIV-Gai inh
> O=C(COc1ccc(F)cc1)N/N=C1\CCS(=O)(=O)c2ccc(F)cc21
  -12.6	92.5	94.3	/
> CC(NC(=O)c1ccc2c(=O)n3c(nc2c1)CCCCC3)c1ccccc1 (stereo not drawn)
  5.5	106.4	80.2	106.5
